GIV Gai3 FP = inhibitors of GIV peptide binding to Galpha-i3, primary screen, biochemical, fluorescence polarization, FITC-GIV GBA peptide, rat Galphai3. 90 min; hits give low values; scaled: aluminum fluoride 0%, vehicle 100%. percent of control (FP), % (concentration not given with the values). hit rate 0.42% among 210,000. AID 1224905, 2016;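 active = replicate mean at 85% of control or lower, very high polarization wells dropped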;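 note: wells of about 15 µL received 100 nL stock; the first replicate is given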
Target sequence (P08753 whole entry, looked up): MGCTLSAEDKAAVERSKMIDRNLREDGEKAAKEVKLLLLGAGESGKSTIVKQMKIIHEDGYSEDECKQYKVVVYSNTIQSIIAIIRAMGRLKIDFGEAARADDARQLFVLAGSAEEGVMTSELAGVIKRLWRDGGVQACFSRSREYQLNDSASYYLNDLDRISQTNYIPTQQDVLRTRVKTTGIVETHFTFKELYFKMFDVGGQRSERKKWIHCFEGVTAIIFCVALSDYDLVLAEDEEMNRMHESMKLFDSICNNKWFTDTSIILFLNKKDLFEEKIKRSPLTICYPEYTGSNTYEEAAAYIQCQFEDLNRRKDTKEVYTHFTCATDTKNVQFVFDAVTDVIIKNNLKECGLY
HCMV NEC inh = inhibitors of HCMV UL50-UL53 interaction, biochemical, HTRF. AID 1918969, 2023. hit rate 0.15% among 190,000. HCMV UL50-UL53 nuclear egress complex (human cytomegalovirus). inhibition, % (test concentration not listed). normalized percent inhibition;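 active = both replicates at 50% or more, plus weaker picks with an unusually low signal ratio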;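 note: stock transfer was 100 nL into about 20 µL; 0% = negative control wells and 100% = wells with untagged competitor protein; inactives centre near -12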
Sa growth inh = S. aureus growth inhibition at 42 and 30 °C, primary screen, LtaS inhibitor project, RN4220, two temperatures | OD600, 20 h, 42 °C; hits give low values | relative growth, % (no concentration beside the values) | hit rate 0.53% among 170,000 | AID 720641, 2013;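 active = growth at 42 °C up to 50% and 20 or more points under that at 30 °C, or under 10% at both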;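 note: 300 nL library stock went into each well; scaled to the means of positive and negative controls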
Sa growth inh second temp = recorded beside Sa growth inh, whose call it bears; relative growth, %; measured here: growth at 30 °C;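 optical density after 20 h as mean of two plates; 100% = untreated growth and lower means inhibition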
The depositor's hits bear a star; . = not tested or not shown; & = joins results of further samples.

Abbreviations – A = GIV Gai3 FP; B = HCMV NEC inh; C = Sa growth inh; D = Sa growth inh second temp
molecule: O=C(NC1CCCc2ccccc21)c1ccc(S(=O)(=O)NCc2ccco2)cc1 (stereo not drawn)
  A: .; B: -16; C: 87; D: 89
molecule: CCOc1cc(/C=C(\C#N)C(=O)Nc2ccccc2C)ccc1OCc1cc(=O)n2nc(CC)sc2n1
  A: 103; B: 17; C: 102; D: 90
molecule: CNc1cc(F)nc(F)n1
  A: 111; B: -14; C: 95; D: 84
molecule: COC(=O)c1cccc(NS(=O)(=O)c2ccccc2)c1
  A: 98; B: -13; C: 76; D: 107
molecule: CSCc1cc(=O)[nH]c(C)n1
  A: 97; B: -2; C: .; D: .
molecule: CCCN1CCN(c2ccc(C(=O)O)cc2NC(=O)c2ccccc2Cl)CC1
  A: 97; B: -30; C: .; D: .
molecule: CC(C)(C)c1cc(CCC#N)cc(C(C)(C)C)c1O
  A: 113; B: -19; C: 76; D: 63
molecule: CCc1cccc(C)c1NC(=O)CC1Oc2ccc(C)cc2NC1=O (stereo not drawn)
  A: 102; B: 8; C: 94; D: 95
molecule: CC(C)CCSc1nc(N)c(C#N)cc1C#N
  A: 122; B: 40; C: 109; D: 79
molecule: CCOC(=O)c1cccnc1SCC(=O)Nc1ccc(C)cc1C
  A: 98; B: .; C: 94; D: 90
molecule: Cc1cc(C)c(Cn2c3ccccc3c3cnn(CC(=O)NCc4ccccn4)c(=O)c32)c(C)c1
  A: 103; B: -2; C: 104; D: 77
molecule: O=C(NC1CCCCC1)C(c1ccc(O)c(O)c1)N(C(=O)Cn1nnc2ccccc21)C1CCCCC1 (stereo not drawn)
  A: 101; B: -12; C: 99; D: 79
molecule: CN(CC(=O)NCc1ccccc1)Cc1nc2ccccc2c(=O)[nH]1
  A: .; B: -2; C: 91; D: 92
molecule: CCOc1ccc(CCNC(=O)CN2Cc3ccccc3C2=O)cc1OCC
  A: 101; B: 1; C: 106; D: 101
molecule: Cc1cccc(N2CCN(C(=O)c3c(C)oc4nc(C)nc(N5CCCC5)c34)CC2C)c1 (stereo not drawn)
  A: 101; B: .; C: 87; D: 85
molecule: CCCC(CCC)C(=O)Nc1ccccc1
  A: 102; B: -12; C: 100; D: 102
molecule: COc1cccc(-c2nc(S(=O)(=O)c3ccc(C)cc3)c(NCc3ccccc3)o2)c1
  A: 100; B: 15; C: 121; D: 104
molecule: CC(CCC(=O)O)C1CCC2C3C(=O)CC4CC(=O)CCC4(C)C3CC(=O)C12C (stereo not drawn)
  A: 102; B: 25; C: 76; D: 88
molecule: N#CCS(=O)(=O)c1ccc2c(c1)OCCO2
  A: 107; B: -4; C: 102; D: 80
molecule: CCS(=O)(=O)c1ccc(-c2ccc(NC(=O)c3ccc(C)c(C)c3)cc2)nn1
  A: 107; B: -15; C: .; D: .
molecule: O=C(NNc1ccccc1C(F)(F)F)c1ccno1
  A: 106; B: -8; C: 97; D: 87
molecule: CC12CC(/C(=C(O)\C=C\c3ccccc3)C(=O)N1)c1ccccc1O2 (stereo not drawn)
  A: 112; B: .; C: 80; D: 92
molecule: Cc1cccc2sc(N(Cc3cccnc3)C(=O)CCS(=O)(=O)c3ccccc3)nc12
  A: 99; B: .; C: 111; D: 78
molecule: O=C(NCCOc1ccc2ccccc2c1)c1cncc(Br)c1
  A: .; B: -6; C: 109; D: 88
molecule: Cc1nn2c(C)c(C(=O)N3CCN(c4ccccc4)CC3)cnc2c1-c1ccccc1
  A: 97; B: .; C: 82; D: 40
molecule: CCOc1ccc(NC(=O)N2CCC(n3cnc4cc(C(=O)N(C)C)ccc43)CC2)cc1
  A: 106; B: 4; C: .; D: .
molecule: O=C(OCc1nc2ccccc2s1)c1n[nH]c(=O)c2ccccc12
  A: .; B: -31; C: 109; D: 91
molecule: CCSc1nnc(SCC(=O)NCc2ccc(OC)c(C(=O)O)c2)s1
  A: .; B: -15; C: 110; D: 87
molecule: CCN(Cc1ccccc1)c1ncc(NS(=O)(=O)c2c(C)cc(C)cc2C)cc1C(=O)O
  A: 118; B: -40; C: .; D: .
molecule: Cc1nn2c(=O)cc(COC(=O)c3ccccc3NC(=O)c3cccs3)nc2s1
  A: 100; B: .; C: 100; D: 91
molecule: Cc1cc2c(n1-c1ccc(C(=O)NCCc3ccc(Cl)cc3)cc1)CCCC2
  A: 107; B: .; C: 115; D: 102
molecule: CCc1cccc(C)c1NC(=O)Cn1c(C(=O)OC)c(NC(C)=O)c2c(C)c(C)sc21
  A: 105; B: -18; C: .; D: .
molecule: O=C(OCC(=O)N1CCc2ccccc21)c1ccc(S(=O)(=O)NCc2ccco2)cc1
  A: .; B: -9; C: 83; D: 94
molecule: Cc1cccc(N2CCN(C(=O)Nc3cn(C)c(=O)c4ccccc34)CC2)c1C
  A: 110; B: .; C: 91; D: 95
molecule: CC1(C)Cc2c(sc(NC(=O)Cc3ccccc3)c2C#N)C(C)(C)N1
  A: .; B: -11; C: 103; D: 83
molecule: COC(=O)c1c(O)c[nH]c1C
  A: 108; B: -10; C: 119; D: 99
molecule: Cn1c(=O)[nH]c(=O)c2c1nc(N1CCOCC1)n2Cc1ccccc1
  A: 101; B: 11; C: 110; D: 105
molecule: CCn1nccc1C1CCCN1S(=O)(=O)c1cc(C)ccc1C (stereo not drawn)
  A: 98; B: -30; C: .; D: .
molecule: O=C1C(=Cc2cccnc2)C(=O)c2ccccc21
  A: .; B: -18; C: 64; D: 39
molecule: COc1cccc(C(=O)NCCc2csc(-c3ccc(Cl)cc3)n2)c1
  A: 104; B: .; C: 81; D: 92
molecule: Cc1ccc(CN2CCC(CNC(=O)c3cnn(-c4ccccc4)c3C3CCN(C(=O)OC(C)(C)C)CC3)CC2)cc1
  A: 105; B: .; C: 84; D: 89
molecule: O=C(NCCN1C(=O)S/C(=C\c2cccnc2)C1=O)c1cccc(S(=O)(=O)N2CCN(c3ccc(F)cc3)CC2)c1
  A: .; B: -2; C: 101; D: 94
molecule: COC(=O)c1ccc(C)c(NC(=O)C2CC(=O)N(Cc3ccc(C)cc3)C2)c1 (stereo not drawn)
  A: .; B: 10; C: 93; D: 103
molecule: CCOc1nc(-c2ccccc2O)nc2ccccc12
  A: 98; B: -11; C: 83; D: 83
molecule: NC1CCN(c2c(F)cc3c(=O)c(C(=O)O)cn(C4CC4)c3c2Cl)C1 (stereo not drawn)
  A: 110; B: -41&-13; C: -0.9*; D: -0.6*
molecule: Cc1ccc(C(=O)OCN2C(=O)c3ccccc3C2=O)cc1
  A: .; B: -20; C: 102; D: 91
molecule: O=C1CSc2nnc(-c3ccncc3)n21
  A: 98; B: 26; C: 84; D: 79
molecule: CN1CCN(S(=O)(=O)c2ccc(NC(=S)NC(=O)C3CCCC3)cc2)CC1
  A: 102; B: 10; C: 103; D: 103
molecule: CC1=NNc2nc3c(c(=O)[nH]c(=O)n3C)n2C1
  A: 99; B: -32; C: 88; D: 82
molecule: O=C(O)CCN1C(=O)CSC1=O
  A: 106; B: 4; C: 107; D: 84

The listing continues.
Abbreviations – A = GIV Gai3 FP; B = HCMV NEC inh; C = Sa growth inh; D = Sa growth inh second temp
molecule: Cc1cccc(NC(=O)C2CCCN(S(=O)(=O)c3ccc(Br)s3)C2)c1 (stereo not drawn)
  A: 104; B: -4; C: 108; D: 80
molecule: COc1ccc(N2CCN(C(CNC(=O)C(=O)NCc3ccc(F)cc3)c3cccnc3)CC2)cc1 (stereo not drawn)
  A: 107; B: -3; C: 113; D: 100
molecule: CCOC(=O)c1sc(NC2CCCC2)nc1C
  A: .; B: 4; C: 69; D: 61
molecule: Cc1ccc2nc(N3CCN(C(=O)C(F)(F)F)CC3)nc(-c3ccccc3)c2c1
  A: 101; B: -2; C: .; D: .
molecule: O=C(O)Cc1ccc2ccccc2c1Br
  A: .; B: -18; C: 95; D: 104
molecule: COc1ccccc1OCCSc1nc2ncnc(N)c2[nH]1
  A: 108; B: -8; C: 94; D: 79
molecule: CCC1(C)Cc2c(sc3nc(SC)n4c(SCc5ccccc5)nnc4c23)CO1 (stereo not drawn)
  A: 104; B: .; C: 106; D: 82
molecule: CN(C)C=Nc1ccc(C(=O)/C=C/N(C)C)cc1
  A: .; B: -25; C: 101; D: 87
molecule: CCN(CC)C(=O)c1noc2c1COc1ccccc1-2
  A: 97; B: -31; C: 92; D: 77
molecule: O=C(CSCc1nc(-c2ccc(F)cc2)no1)N1CCNC1=O
  A: 106; B: -4; C: .; D: .

One compound at a time, from the list above:
O=C(O)Cc1ccc2ccccc2c1Br across the screens: GIV Gai3 FP = .; HCMV NEC inh = -18; Sa growth inh = 95; Sa growth inh second temp = 104
COc1ccc(N2CCN(C(CNC(=O)C(=O)NCc3ccc(F)cc3)c3cccnc3)CC2)cc1 (stereo not drawn) across the screens: GIV Gai3 FP = 107; HCMV NEC inh = -3; Sa growth inh = 113; Sa growth inh second temp = 100

Further compounds.
Abbreviations – A = GIV Gai3 FP; B = HCMV NEC inh; C = Sa growth inh; D = Sa growth inh second temp
molecule: O=C(c1ccc(Br)o1)N(c1ccccn1)C1CCCCC1
  A: .; B: 3; C: 101; D: 92
molecule: CC(=O)Nc1ccc(S(=O)(=O)NC(CC(=O)O)C(C)C)cc1 (stereo not drawn)
  A: 103; B: -23; C: 105; D: 95
molecule: O=C(O)C1CCCN(c2nn3cc(-c4ccc(F)cc4)nc3s2)C1 (stereo not drawn)
  A: 92; B: -23; C: 51; D: 25
molecule: COc1ccc(C2C(C(=O)NC3CCCCCC3)CCC(=O)N2c2ccc(OC)cc2)cc1 (stereo not drawn)
  A: 106; B: .; C: 95; D: 81
molecule: Cc1cc(C(C)C)n2c(nc3ccccc32)c1C#N
  A: .; B: -22; C: 68; D: 87
molecule: CCc1cccc(NC(=O)Cn2cccc2)c1
  A: 106; B: .; C: 117; D: 90
molecule: O=S(=O)(NCCS(=O)(=O)N1CCN(c2ccccc2F)CC1)c1ccc(Cl)cc1
  A: 106; B: .; C: 116; D: 94
molecule: CCc1ccc(OCc2nc(C)c(C(=O)Nc3nc4ccc(C)cc4s3)s2)cc1
  A: 107; B: -10; C: .; D: .
molecule: CCC1CCCCN1C(=O)Cn1c(SCc2ccc(OC)cc2)nc2ccncc21 (stereo not drawn)
  A: 100; B: -6; C: 104; D: 82
molecule: Cc1ccc(CNC(=O)c2c(C)cc(=O)oc2C)cc1
  A: 101; B: .; C: 85; D: 82
molecule: Cc1cc(N2CCCC2)ccc1NC(=O)CNC(=O)C1CCCCC1
  A: .; B: -3; C: 78; D: 87
molecule: COc1ccc(CN2C(=O)CC(c3ccc(OC)c(OC)c3)CC2=O)cc1
  A: 102; B: -15; C: .; D: .
molecule: S=C(Nc1ccccc1Cl)N(CCN1CCCCCC1)Cc1cccs1
  A: 102; B: .; C: 98; D: 79
molecule: O=C1CCc2cc(S(=O)(=O)NCc3ccccc3)ccc2N1
  A: 110; B: .; C: 103; D: 98
molecule: Fc1ccc(CN(Cc2ccco2)Cc2nnnn2CCc2ccccc2)cc1
  A: 105; B: 2; C: 135; D: 99
molecule: CC(SCCc1ccccn1)C(=O)O (stereo not drawn)
  A: .; B: -10; C: 84; D: 87
molecule: CC(Oc1ccccc1)c1ccnc2ncnn12 (stereo not drawn)
  A: 105; B: -17; C: .; D: .
molecule: O=C(C1CC1)N1CCc2cc(Br)c(S(=O)(=O)N3CCN(c4ccccn4)CC3)cc21
  A: 101; B: -11; C: .; D: .
molecule: Cc1oc(C(C)(C)C)cc1C(=O)NCc1csc(-c2cccs2)n1
  A: 104; B: .; C: 100; D: 89
molecule: COc1cc(OC)cc(-c2nc(NC(=O)C3CCCN(c4cnc5ccccc5n4)C3)n[nH]2)c1 (stereo not drawn)
  A: 92; B: -8; C: .; D: .
molecule: COc1ccc(S(=O)(=O)C(F)(F)F)cc1S(=O)(=O)C(F)(F)F
  A: 106; B: -11; C: 95; D: 93
molecule: COc1cc2c(cc1OC)-c1c(C#N)c(-c3ccc(C)cc3)c(C(=O)c3cccs3)n1CC2
  A: 104; B: -39; C: 94; D: 89
molecule: CC(C)CNc1ncnc2onc(-c3ccc(Cl)cc3)c12
  A: 101; B: -15; C: 100; D: 84
molecule: COC(=O)CSc1nc2c3ccccc3ncn2n1
  A: .; B: -24; C: 93; D: 94
molecule: CCn1c(=O)c2cc(C(=O)NCC(OC)OC)sc2c2ccccc21
  A: 102; B: .; C: 95; D: 85
molecule: Cc1ccc(C(NC(=O)Cc2cccs2)C(=O)Nc2ccc(C(C)C)cc2)cc1 (stereo not drawn)
  A: 98; B: -25; C: 104; D: 95
molecule: COC(=O)c1cc(=O)n(-c2ccc(C(F)(F)F)cc2)[nH]1
  A: 103; B: -2; C: 71; D: 62
molecule: O=C(NCC(=O)N1CCN(c2ccccc2)CC1)c1ccc(Br)cc1
  A: 102; B: -40; C: 107; D: 100
molecule: Cc1cc(C)nc(N2Cc3ccccc3C2=NC(=O)c2ccc3c(c2)OCCO3)n1
  A: .; B: -2; C: 72; D: 90
molecule: Cc1c(Cl)cccc1NC(=O)Cn1cc(C(=O)c2ccncc2)c(=O)c2cc(Cl)ccc21
  A: 108; B: -24; C: .; D: .
